Compound activity deposited in PubChem by several laboratories.
YopH inh = YopH (Yersinia) phosphatase inhibition. fluorescence Ex485/Em525. inhibition, %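 (about 10 µM by stock and volumes)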. 0.16% of 140,000 active;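 active means inhibition of 50% or more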;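 further: controls were vehicle for no effect and minimum signal wells for full effect; inactives centre near -20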
Arbovirus anti = arbovirus infection inhibition | inhibition, % at 10 µM | arbovirus infection cell-based antiviral screen | 0.37% of 200,000 active;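 active means inhibition from about 30%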;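 further: bluetongue infection of BSR cells; cell survival read as ATP light after 72 h; 0% = infected wells without compound and 100% = uninfected wells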
RecA splice inh = inhibitors of M. tuberculosis RecA intein splicing; P9WHJ3; cell-free RecA intein splicing, fluorescence; inhibition, %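 (about 9 µM by stock and volumes)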; 0.75% of 290,000 active; AID 2221; in the data active means inhibition above about 30%; inconclusive means no clear call, values can overlap the other calls;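 further: 0% = vehicle wells and 100% = reference inhibitor control wells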
Target sequence (P9WHJ3 whole entry, looked up, canonical isoform): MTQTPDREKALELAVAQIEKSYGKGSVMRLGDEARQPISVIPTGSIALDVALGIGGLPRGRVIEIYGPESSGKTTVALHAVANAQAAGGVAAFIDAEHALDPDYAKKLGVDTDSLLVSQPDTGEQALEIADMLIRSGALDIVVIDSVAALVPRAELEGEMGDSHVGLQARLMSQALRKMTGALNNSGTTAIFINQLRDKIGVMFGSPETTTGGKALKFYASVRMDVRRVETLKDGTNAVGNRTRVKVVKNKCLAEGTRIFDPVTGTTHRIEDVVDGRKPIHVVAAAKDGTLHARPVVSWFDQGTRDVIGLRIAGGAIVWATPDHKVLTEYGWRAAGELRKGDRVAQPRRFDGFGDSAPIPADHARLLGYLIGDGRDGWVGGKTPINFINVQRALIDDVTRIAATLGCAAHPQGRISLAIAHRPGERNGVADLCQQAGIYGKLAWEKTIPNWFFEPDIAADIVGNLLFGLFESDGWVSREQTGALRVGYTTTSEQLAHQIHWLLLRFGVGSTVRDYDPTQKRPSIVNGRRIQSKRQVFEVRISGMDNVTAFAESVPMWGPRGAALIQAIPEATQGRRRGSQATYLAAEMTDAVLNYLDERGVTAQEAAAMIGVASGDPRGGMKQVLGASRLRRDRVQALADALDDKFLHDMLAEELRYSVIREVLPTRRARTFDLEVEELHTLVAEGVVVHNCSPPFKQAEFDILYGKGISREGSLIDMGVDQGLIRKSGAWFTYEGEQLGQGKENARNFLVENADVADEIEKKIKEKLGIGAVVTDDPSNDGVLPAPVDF
Mtb growth = M. tuberculosis H37Rv growth inhibitors, H37Rv strain (AID 1626); M. tuberculosis H37Rv growth inhibition; higher % means a stronger effect; one-dose inhibition, % at 10 µM; IC50 in µM for titrated hits; 0.95% of 220,000 active;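 active means confirmed in a dose series; inconclusive means inhibition above 80% but not taken into the dose series; inactive means below 80% or under 30% at every dose of the series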;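 further: bacteria incubated seven days before Alamar blue readout; 0% = bacteria only wells and 100% = bacteria with antibiotic wells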
Mtb betalactam = beta-lactam sensitization of Mtb H37Rv. M. tuberculosis H37Rv growth with meropenem, percent inhibition; hits of this screen are not shown here. inhibition, % at 25 µM. 0.27% of 330,000 active;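 active means about 74% or more and at least 40 points above the plate without the antibiotic, then above 30% in a dose series; inconclusive means first-round hits that could not be retested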;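 further: growth measured after seven days incubation then overnight dye step; 0% = bacteria only wells and 100% = bacteria with antibiotic; twin plates without the antibiotic show which effects depend on it; some results filed as inactive read as strong as hits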
Arbovirus anti repeat = recorded beside Arbovirus anti, whose call it bears; inhibition, %; measured here: 10K subset replicate screen; many hits read low in the repeat;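 first of two repeat runs on a subset; 0% = infected and 100% = uninfected wells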
The depositor's hits bear a star; ? = inconclusive; nt = not tested or not shown. Not all compounds are listed (hit frequency here may not be typical).

SMILES	YopH inh	Arbovirus anti	RecA splice inh	Mtb growth	Mtb betalactam	others
CC(C)NS(=O)(=O)c1ccc2c(c1)oc(=O)n2C	-32	5	-1.8	2%	-1	Arbovirus anti repeat=3
COC(=O)c1c(-c2ccc3ccccc3c2)csc1NC(=O)Cc1ccc(OC)c(OC)c1	2	-9	3.8	nt	8
CCC(=NC(CC)CO)C1=C(O)CC(C)(C)CC1=O (stereo unspecified)	-39	9	-0.5	0%	-4
Cn1cccc1/C=N/n1cnnc1	3	5	1.5	-3%	1
C#CCSc1nnc(-c2ccc([N+](=O)[O-])cc2)o1	nt	8	1.7	?	100
Cc1cnc(NC(=O)c2c(O)c3cccc4c3n(c2=O)CCC4)s1	-35	4	-1.6	?	nt
Clc1ccc(SCc2cc(-c3ccccc3)no2)cc1	-34	3	1.3	9%	-4
O=C(OCC(=O)N1CCN(C(=O)c2ccco2)CC1)c1cccc(O)c1	nt	nt	0.4	nt	2
CNC(=O)NC(O)C(Cl)(Cl)Cl (stereo unspecified)	nt	nt	-0.6	nt	-4
Cc1nc(N)sc1C(=O)OCC(C)C	nt	-1	2.1	78%	69
Cn1cc(Br)c(C(=O)Nc2sc3c(c2C(N)=O)CCCC3)n1	nt	nt	0.3	nt	1
CCN(CCn1cccn1)Cc1nc(-c2ccc(C(=O)OC)cc2)no1	nt	1	1.5	-16%	4
COc1ccc(C(=O)NC(=S)Nc2ccc3c4c(cccc24)CC3)cc1OC	32	2	0.2	11%	5
CCOC(=O)C(CC)(CC)C(=O)/C=C/c1ccc(OC)cc1	nt	nt	0.0	12%	-9
CCOc1ccccc1NC(=O)CC1SC(=N)N(c2ccccc2)C1=O (stereo unspecified)	nt	4	-0.8	4%	-2
COc1ccc(N=C2C(=O)N3CCCc4cccc2c43)cc1	-2	-25	-2.9	>100µM*	91
Cn1c(=O)c2sccc2n2c(CCCC(=O)NCCc3ccccc3)nnc12	nt	nt	-5.7	nt	-5
Cc1ccc(NC(=O)N2CCCN(Cc3ccc(F)cc3)C2)cc1C	-19	-37	-0.9	11%	17
CCc1ccc(NC(=O)CNC(=O)c2nn(-c3ccc(OC)cc3)c(=O)c3ccccc23)cc1	nt	nt	3.0	nt	-3
Cc1ccc(S(=O)(=O)N2CCOC2CNC(=O)C(=O)NCc2ccccn2)cc1 (stereo unspecified)	nt	nt	1.2	nt	-5
CC(=O)Nc1cccc(NC(=O)c2cc(-c3ccccn3)nc3ccc(Cl)cc23)c1	nt	nt	-0.6	nt	6
Cc1cc(Nc2ccc(Cl)cc2)n2ncnc2n1	nt	nt	1.5	nt	5
COc1ccccc1C(=O)Nc1c2c(nn1-c1cccc(C)c1C)CS(=O)(=O)C2	7	-8	-2.0	-3%	-1
COc1ccc(-c2cccc(C(=O)Nc3ccc(C)cc3)c2)cc1	-19	-1	-0.9	-5%	-13
O=c1oc2cc(S(=O)(=O)NCCCO)ccc2c2ccc(S(=O)(=O)NCCCO)cc12	nt	nt	-0.1	-7%	-10
Next part:
SMILES	YopH inh	Arbovirus anti	RecA splice inh	Mtb growth	Mtb betalactam	others
CCC(C(=O)N1CCCC1)n1nc(C)c2c(C)n(-c3ccccc3)nc2c1=O (stereo unspecified)	nt	nt	3.4	nt	-4
C[C@H](NC(=O)C1CCN(S(=O)(=O)c2ccccc2)CC1)C(=O)NCc1ccccc1	nt	nt	1.6	nt	-1
Cn1nc(/C=C/c2ccccc2)ccc1=O	nt	-8	1.0	4%	-10
Cc1cc(Cl)ccc1OC(C)C(=O)NNC(=O)C1CCCCC1C(=O)O (stereo unspecified)	nt	nt	-1.0	nt	-3
NC(=O)c1cc2ccncc2c2ccccc12	nt	nt	-1.0	-9%	1
N/C(CC(=O)NC1CCCCC1)=N\OCC(=O)Nc1ccc(Cl)c(Cl)c1	nt	nt	1.7	-4%	-1
CC(Oc1ccc2c3c(c(=O)oc2c1)CCC3)C(=O)NCc1cccnc1 (stereo unspecified)	nt	nt	0.8	nt	6
COC(=O)c1ccc(COc2ccc3c(c2)CCC3)o1	nt	nt	3.7	-6%	-3
O=C(Cn1nc(-c2ccccc2)ccc1=O)Nc1ccc(-n2cnnn2)cc1	nt	nt	-1.8	nt	-4
Cc1ccc(NC(=O)Cn2nnc3ccccc32)c(C)c1	nt	5	-1.5	0%	-13
COc1cc(C(=O)NCCOc2cc(C)ccc2C(C)C)cc(OC)c1OC	nt	nt	-5.0	nt	2
O=C1CS/C(=N/N=C/c2cccs2)N1	nt	7	1.2	8%	16
COc1ccc(CN2CCN(C(=O)CCC(=O)Nc3nnc(C(F)(F)F)s3)CC2)cc1F	nt	nt	1.0	nt	9
COc1ccc(OC)c(NC(=O)c2cccc(NC(=O)c3ccccc3)c2)c1	nt	nt	0.9	nt	-1
COc1ccc(N2CCN(C(c3ccco3)c3sc4nc(C)nn4c3O)CC2)cc1 (stereo unspecified)	-6	11	-0.3	-1%	-8
CC(C)C[C@H](N)c1cn([C@@H](Cc2cc3ccccc3[nH]2)C(=O)N2CCNCC2)nn1	nt	8	-2.1	-6%	1
COc1ccc(C2C(C(=O)Nc3cc(OC)c(OC)c(OC)c3)c3ccccc3C(=O)N2C)cc1 (stereo unspecified)	nt	-11	-1.0	-1%	-8
O=C(N/N=C\C=C\c1ccco1)C1COc2ccccc2O1 (stereo unspecified)	nt	nt	3.2	-12%	-6
CC(C)NC(=O)C1(O)c2ccccc2NC(=O)N1c1ccc(Cl)c(Cl)c1 (stereo unspecified)	-12	-1	0.3	-7%	-2	Arbovirus anti repeat=4
COc1cccc(N(CC(=O)Nc2ccccc2C)S(C)(=O)=O)c1	-46	12	-1.9	7%	-1
O=C1C=C(NC2CC2)C2(CCCCC2)O1	-47	-3	0.5	-2%	-8
CCN(CC)C(=O)CCCSc1nnc(Nc2ccccc2F)s1	nt	3	0.0	-7%	-9
COc1ccc(OC)c(NC(=O)Cn2c(CCC(=O)O)ccc2-c2ccc(C)cc2)c1	nt	4	4.1	6%	-2
COc1cc(/C=N/NC(=O)CNC(=O)c2ccncc2)ccc1O	nt	nt	-3.7	nt	-1
Cc1nnc(NC(=O)CSc2nnc(-c3ccco3)o2)s1	nt	16	-5.9	-10%	1

Molecules above that contain a thiophene ring, fused or not:
SMILES	YopH inh	Arbovirus anti	RecA splice inh	Mtb growth	Mtb betalactam	others
COC(=O)c1c(-c2ccc3ccccc3c2)csc1NC(=O)Cc1ccc(OC)c(OC)c1	2	-9	3.8	nt	8
Cn1cc(Br)c(C(=O)Nc2sc3c(c2C(N)=O)CCCC3)n1	nt	nt	0.3	nt	1
Cn1c(=O)c2sccc2n2c(CCCC(=O)NCCc3ccccc3)nnc12	nt	nt	-5.7	nt	-5
O=C1CS/C(=N/N=C/c2cccs2)N1	nt	7	1.2	8%	16

Going on with the list.
SMILES	YopH inh	Arbovirus anti	RecA splice inh	Mtb growth	Mtb betalactam	others
COc1cc(/C=C2\SC(=Nc3ccccc3OC)NC2=O)ccc1O	nt	nt	7.9	nt	13
CN(CC(=O)Nc1cccc(F)c1)C(=O)c1ccncc1	nt	nt	2.7	nt	-5
CCOC(=O)N1CCN(Cc2cc(=O)oc3ccc4ccccc4c23)CC1	-23	-3	-4.8	9%	17
CC(C)c1ccc(N(CC(=O)NCc2ccc(F)cc2)C(=O)c2snc(C(N)=O)c2N)cc1	nt	nt	-4.7	nt	3
CCN(CC)C(=O)CSc1ccc(C(F)(F)F)cc1[N+](=O)[O-]	-11	-5	0.0	-9%	-10
CCc1ccc(OCC(=O)NCC(c2ccc(Cl)cc2)N2CCCCC2)cc1 (stereo unspecified)	nt	nt	6.9	nt	48
CN(C)c1ccc(/C=N/Nc2ccc(-n3ccnc3)nn2)cc1	-20	-9	-4.9	-1%	8
CC/C(C)=N/Nc1nc2c(c(=O)[nH]c(=O)n2C)n1CCc1ccccc1	nt	-5	-6.3	-5%	-3
Cc1ccc(NC(=O)CSc2nc3c([nH]c4ccccc43)c(=O)n2C)cc1	nt	-5	-0.3	0%	0
O=C(Nc1nonc1NC(=O)C1CCCCC1)C1CCCCC1	15	-7	-1.2	-6%	14
COc1ccccc1/C=C1\SC(=S)N(C(C(=O)O)c2ccccc2)C1=O (stereo unspecified)	nt	nt	0.7	0%	-7
CCN1CCN(c2ccc(NC(=O)COc3ccccc3Cl)cc2)CC1	-19	-13	-3.6	-2%	-3
Cc1ccccc1-c1ccc(=O)n(CC(=O)Nc2ccc(C(=O)N3CCCC3)cc2)n1	-11	8	-1.0	-4%	0
CC(C)C(=O)Nc1c2c(nc3c1CCC3)CCCC2	-6	7	0.7	-2%	-5
COCCOC(=O)C1=C(C)NC(=O)NC1C1CC=CCC1 (stereo unspecified)	-39	1	-0.4	-9%	-5	Arbovirus anti repeat=1
COc1cc([N+](=O)[O-])ccc1-c1ccc(/C=N/NC(=O)OC(C)(C)C)o1	nt	nt	-0.3	-4%	-7
CCOC(=O)c1cnn(-c2ccccc2)c1NC(=O)CCl	-19	15	4.0	2%	3
Cc1cc(NS(=O)(=O)c2ccc(NC(=S)NC(=O)/C=C/c3ccccc3)cc2)no1	nt	nt	0.6	nt	37
CC1CCC/C(=N\NC(=O)c2ccncc2)C1 (stereo unspecified)	-30	2	-1.2	?	98
COc1ccccc1CNc1ccc(C(=O)O)cc1	-15	2	1.2	-3%	6
O=C(Nc1ccccc1)C(=O)c1cn(CC(=O)N2CCCCC2)c2ccccc12	-29	2	-0.1	17%	-3
O=C(CCN1C(=O)COc2ccccc21)NCCN1CCOCC1	-8	-1	-0.8	0%	10
Cc1cc(OCC(=O)O/N=C(\N)Cc2cccs2)ccc1Br	-18	8	15	13%	1
O=C(NCCc1c[nH]c2ccccc12)C(=O)NCC1OCCCN1S(=O)(=O)c1cccs1 (stereo unspecified)	nt	-13	1.1	1%	-3
Cc1ccc(N/C(N)=N/c2nc(C)cc(N3CCCCC3)n2)c(C)c1	nt	-31	4.4	2.2µM*	99

By substructure: the entries above containing a nitro group on carbon.
SMILES	YopH inh	Arbovirus anti	RecA splice inh	Mtb growth	Mtb betalactam	others
C#CCSc1nnc(-c2ccc([N+](=O)[O-])cc2)o1	nt	8	1.7	?	100
CCN(CC)C(=O)CSc1ccc(C(F)(F)F)cc1[N+](=O)[O-]	-11	-5	0.0	-9%	-10
COc1cc([N+](=O)[O-])ccc1-c1ccc(/C=N/NC(=O)OC(C)(C)C)o1	nt	nt	-0.3	-4%	-7

More structures follow:
SMILES	YopH inh	Arbovirus anti	RecA splice inh	Mtb growth	Mtb betalactam	others
COC(=O)c1cccc(NC(=O)C23CC4CC(C2)CC(n2cncn2)(C4)C3)c1	-35	0	-4.9	-5%	-7
CCn1c(SCC(=O)N2CCC(C)CC2)nc2c(c1=O)SC(C)C2 (stereo unspecified)	nt	nt	-1.1	nt	4
Nc1ccc(C(=O)OCC(=O)Nc2cc([N+](=O)[O-])ccc2F)cc1	-20	10	1.0	1%	9
COc1ccccc1-c1nc2s/c(=C\c3cccs3)c(=O)n2n1	-20	6	-1.3	2%	6
CCCOP(=O)(O)c1c([N+](=O)[O-])cc(C(F)(F)F)cc1[N+](=O)[O-] (tested in a mixture with another compound)	-36	7	-0.1	-6%	5
COc1ccc(N(CC(=O)N/N=C/c2ccc(-c3ccc([N+](=O)[O-])cc3)o2)S(=O)(=O)c2ccc(C)cc2)cc1Cl	-9	13	-11	?	37
O=C(COC(=O)Cn1cnc2ccccc2c1=O)Nc1ccc(Cl)cc1	-21	0	-0.4	-1%	2
Cc1ccccc1NCCC(=O)Nc1ccc(F)cc1	nt	nt	2.2	nt	-6
CC(C)CCNC(=O)C1CC2Cn3c(nc4cc(Cl)c(Cl)cc43)C2N1C (stereo unspecified)	nt	nt	0.2	3%	-11
Cc1cccc2cc(CNCC3CCCO3)c(Cl)nc12 (stereo unspecified)	nt	6	-1.3	2%	14
COc1ccc(C(=O)COC(=O)CNC(=O)c2cccs2)cc1Br	nt	nt	-2.4	nt	2
C/C(=N/OCO/N=C(/C)c1ccc(F)cc1)c1ccc(F)cc1	5	-4	-2.3	7%	-1
Clc1cccc(N2CCN(Cc3nc(-c4ccccc4)no3)CC2)c1	6	33*	12	-3%	9	Arbovirus anti repeat=4.7*
COc1ccc(Cn2c(C)c(C)c(C#N)c2NC(=O)Nc2ccc(Cl)cc2)cc1	-29	-5	1.7	-9%	10
CCCOC(=O)Nc1ccc(N2CCCCC2)cc1	-24	-3	-0.5	-13%	-7
COc1ccc(-c2cn(Cc3ccc4ccccc4c3)nn2)cc1	nt	nt	0.3	nt	-2
Cc1ccc(CC(=O)Nc2cccc(C#N)c2)cc1	nt	1	5.2	-1%	7
Cc1ccccc1OCc1nc2c3cnn(C)c3ncn2n1	12	-2	2.0	2%	6
O=C(CSc1nc(-c2ccco2)cc(C(F)(F)F)n1)N1CCSCC1	-12	-12	1.7	-6%	-14
O=C(NCc1ccc(Cl)cc1)C1CC(O)CN1S(=O)(=O)c1ccc(Cl)cc1 (stereo unspecified)	nt	nt	-2.2	nt	1
